TRPML1 inh: blocks the human TRPML1 channel | Q9GZU1 | TRPML1-inducible cells, Ca2+ dye fluorescence, FDSS; active compounds read low; inhibition of EC80 agonist-evoked calcium signal | activity change, negative = inhibition, % (concentration not given with the values) | 390,000 compounds, 0.02% hits; in the data active means activity change below about -50%; inconclusive means about -30% to -50%; inactive means above about -30%;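 also: stimulus is agonist 54-4 at its EC80 concentration; % is scaled to controls: 0 for no effect and ±100 for the full control effect; the text of the record puts the active cut at -80%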
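Calcium fluorescence in TRPML1-DL cells induced overnight with Tet: a 110 s read after compound pin addition, then a 110 s antagonist read after challenge with 54-4 at 4 uM final (EC80).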
CtBP-E1A inh: blocks the CtBP interaction with E1A. activity change, % (test concentration not listed). AID 651724. AlphaScreen GST-E1A/His-CtBP binding, 1536-well; active compounds read low; control for the full effect not named in the record. 340,000 compounds, 0.49% hits; in the data active means activity change below about -65%; inconclusive means about -30% to -65%; inactive means above about -30%; also: % is scaled to controls: 0 for no effect and ±100 for the full control effect
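In 5 uL wells, 23 nL compound meets equimolar GST-E1A and His-CtBP (5X stock 125 nM each) for 2 h, 37 °C. Beads (5X, 50 ug/mL) then 1 h, 37 °C, dark.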
PINK1 modulator: modulators of PINK1 expression; PINK1 immunofluorescence, high-content cytometry, 24 h; Potency, µM (titrated, usually from 76.6 µM), for inactives: at the highest dose activation (PINK1 increase), most hits filed as activators; 410,000 compounds, 0.2% hits; AID 624263; active = well fitted activation curve with a large enough effect; inconclusive = small, poorly fitted or top-dose-only effect; inactive = flat fitted curve, though single readings scatter; cell line not stated here;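 also: potency is read from the fitted curve at half-maximal effect; % of control where 0% means no effect; nearly all actives have a fitted effect of over 65% in size; a mitochondrial uncoupler was the plate control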
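Measures PINK1 amount and localization on or inside mitochondria by immunofluorescence. Stable cells get compounds at 5 concentrations for 24 hours before fixation and staining; CCCP controls included.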
D2 agonist: activates the human D2 dopamine receptor. P14416. DiscoveRx PathHunter D2 beta-arrestin, luminescence, 90 min; 100% = 57 uM dopamine signal. activation, % (no concentration beside the values). 360,000 compounds, 0.084% hits; in the data active = activation above about 40%; inconclusive = about 15% to 40%; inactive = below about 15%; also: compound concentration not given in the record; the text of the record calls up to 30% inactive
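Agonist mode: compounds alone added to overnight-plated D2 PathHunter cells for 90 min at 37 C, with 57 uM final dopamine (EC100) defining full response. Beta-arrestin recruitment detected by chemiluminescent reagent, read after 1 h at ambient temperature.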
Six1-Eya2 blk: Six1/Eya2 interaction inhibition; AlphaScreen GST-Six1/His-Eya2 binding, biochemical; active compounds read low; control for the full effect not named in the record; activity change, % (concentration not given with the values); 360,000 compounds, 0.56% hits; AID 651725; in the data active = activity change below about -65%; inconclusive = about -30% to -65%; inactive = above about -30%; also: % is scaled to controls: 0 for no effect and ±100 for the full control effect
Target sequence (O00167 whole entry, looked up): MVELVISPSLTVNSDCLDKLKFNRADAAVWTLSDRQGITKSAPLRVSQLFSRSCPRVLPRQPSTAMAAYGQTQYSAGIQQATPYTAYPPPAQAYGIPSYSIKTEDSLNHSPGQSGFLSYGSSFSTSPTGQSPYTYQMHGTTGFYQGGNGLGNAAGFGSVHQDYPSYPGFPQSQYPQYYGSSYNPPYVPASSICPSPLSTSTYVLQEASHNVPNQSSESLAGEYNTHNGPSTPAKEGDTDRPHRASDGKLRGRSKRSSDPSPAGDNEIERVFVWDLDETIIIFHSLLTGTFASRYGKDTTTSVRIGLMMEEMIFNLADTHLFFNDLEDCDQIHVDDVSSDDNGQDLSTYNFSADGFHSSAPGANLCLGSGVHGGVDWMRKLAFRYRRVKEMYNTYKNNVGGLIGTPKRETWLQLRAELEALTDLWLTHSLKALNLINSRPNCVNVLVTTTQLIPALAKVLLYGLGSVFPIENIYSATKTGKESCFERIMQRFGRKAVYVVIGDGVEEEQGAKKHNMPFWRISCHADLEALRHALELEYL
Target sequence (Q15475 whole entry, looked up): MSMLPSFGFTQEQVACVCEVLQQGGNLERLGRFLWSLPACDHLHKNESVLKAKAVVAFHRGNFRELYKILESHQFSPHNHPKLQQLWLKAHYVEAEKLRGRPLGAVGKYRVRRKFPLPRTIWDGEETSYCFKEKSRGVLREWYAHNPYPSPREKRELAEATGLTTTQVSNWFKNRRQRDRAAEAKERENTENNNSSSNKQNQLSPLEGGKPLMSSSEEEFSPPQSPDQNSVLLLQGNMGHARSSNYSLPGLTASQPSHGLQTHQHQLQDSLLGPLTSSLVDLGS
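Compounds are tested against tagged Six1 and Eya2 proteins bridged by glutathione donor and nickel acceptor beads; after a one-hour incubation at 37 °C without light, AlphaScreen emission is recorded.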
TRPML1 ag: activates the human TRPML1 channel. TRPML1-expressing cells, Ca2+ dye fluorescence, FDSS; host cell line not named in the record; reference of the full effect not given here. 410,000 compounds, 0.12% hits. activation, % (no concentration beside the values). AID 624414; in the data active = activation above about 50%; inconclusive = about 30% to 50%; inactive = below about 30%; also: 0% is about no effect; the text of the record puts the active cut at 80%
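Agonist activity was taken from a 110 s kinetic Ca2+ dye read on the FDSS after pinning compounds onto TRPML1-DL cells. The cells were seeded at 1,500/well with Tet inducer, incubated about 16 h, then dye-loaded at room temperature.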
The depositor's hits bear a star; ? = inconclusive; · = not tested or not shown; [ ] = dose if it differs, or a comment.

Each structure is followed by: TRPML1 inh	CtBP-E1A inh	PINK1 modulator	D2 agonist	Six1-Eya2 blk	TRPML1 ag
CCCn1nc(C(=O)NNC(=O)Cc2ccc(S(=O)(=O)N3CCOCC3)s2)c2ccccc2c1=O
    24.8	-13.4	1.3%	-0.5	4.1	1.5
COc1ccc(/C=C/C(=O)Nc2ccccc2C(=O)NCC(c2ccc(OC)cc2)N(C)C)cc1 (centres undefined)
    1.5	-15.2	0.7%	0.4	-14.9	1.1
COC(=O)N/N=C/c1ccc(-c2ccc(Cl)cc2Cl)o1
    -11.4	0.8	5.6%	0.4	-11.4	2.6
O=C(O)CCCn1cc(NC(=O)COc2ccc([N+](=O)[O-])cc2)cn1
    12.5	10.3	1.2%	-1.5	-1.7	0.2
O=C(O)C(Cc1ccccc1)N1C(=O)/C(=C/c2cccnc2)SC1=S (centres undefined)
    -7.7	-14.9	-0.8%	-4.4	-8.0	-0.2
O=C(Nc1ccc(Cl)cc1N1CCOCC1)C1CC1
    -9.5	-24.6	0.8%	-2.1	-15.6	0.4
CCCC(NC(=O)c1ccc(Br)o1)c1nc2ccccc2[nH]1 (centres undefined)
    7.5	10.3	1.9%	-2.7	-1.9	0.4
Cc1nc(SCC(=O)NCC(F)(F)F)c2c(-c3cccs3)csc2n1
    -5.5	·	8.4%	-1.0	15.6	-0.9
O=C(NCCc1ccccc1)C(=O)c1c(-c2ccccc2)cc2ccccn12
    17.6	-16.1	2.1%	-2.3	-19.3	-0.2
COC(=O)N/N=C(\C)c1ccc(OC(F)F)cc1
    -12.8	8.5	-3.5%	-3.6	2.5	-1.0
Cc1c(-c2ccccc2)n(O)[n+]([O-])c1-c1ccccc1
    15.0	-0.4	-0.4%	-2.3	2.8	-0.8
CC(=O)Nc1ccc2c(c1)C(N1CC3CCC(CC3)C1)c1ccccc1-2 (centres undefined)
    -1.5	0.2	11.3%	1.0	-3.5	-0.5
OCCC1CN(Cc2cnn(-c3ccc(F)cc3)c2)CCN1Cc1ccsc1 (centres undefined)
    5.5	-1.8	3.3%	-2.3	4.4	-0.1
COc1ccccc1-c1ccc(Nc2cccc(C(F)(F)F)c2)nn1
    5.7	2.0	11.8%	-3.1	-4.1	0.3
O=C(NCc1ccco1)C(=O)NCC1OCCCN1S(=O)(=O)c1ccc(Cl)cc1 (centres undefined)
    -5.2	·	5.9%	-4.5	-6.0	0.4

More results
Each structure is followed by: TRPML1 inh	CtBP-E1A inh	PINK1 modulator	D2 agonist	Six1-Eya2 blk	TRPML1 ag
CCOCCCNC(=S)N1CCC(NC(=O)c2ccco2)CC1
    8.7	-4.8	1.4%	-0.6	-0.1	-0.6
CCN1CCN(C(=S)Nc2ccc([N+](=O)[O-])cc2)CC1
    -11.3	4.6	-0.6%	-0.8	0.0	-0.7
CCOc1ccc(C(=O)N2CCc3cc(OC)c(OC)cc3C2)cc1OCC
    0.2	-1.3	2.9%	0.9	-0.8	3.8
COc1cc(/C=N/NC(=O)c2ccc3c(c2)OCCO3)cc(Br)c1O
    11.1	-5.6	2.0%	2.0	-6.1	0.1
CCOC(=O)c1c(NC(=O)CCCN2CCOCC2)sc2c1CC(C)(C)OC2
    -1.4	2.1	0.0%	-3.8	-0.4	-0.1
CC(=O)N1CCN(C(=O)c2cc3ccccc3o2)CC1
    -6.4	1.5	2.2%	-1.9	7.2	-0.2
Cc1ccc(NC(=O)c2ccc3c(c2)NC(=O)c2ccccc2S3)cc1
    -1.2	·	10.2%	·	·	-1.0
COc1ccccc1C(=O)COC(=O)COc1cccc2c1OC(C)(C)C2
    25.4	9.1	-1.6%	-6.5	-1.0	1.5
Cc1[nH]c2ccc(-c3n[nH]c(=S)n3-c3ccc(Br)cc3)cc2c1C
    25.5	-4.8	3.4%	0.9	-5.3	1.2
CN(C)CCCOc1ccc(-c2cccc3nncn23)cn1
    ·	1.8	2.3%	-4.8	1.8	0.4
C/C(Cc1ccccc1)=N\NC(=O)CNC(=O)c1cccc(F)c1
    -0.8	-0.3	0.9%	-2.7	5.1	-0.4
COc1ccc(CCNC(=O)CSc2nnnn2-c2ccc(OC)c(OC)c2)cc1OC
    12.7	3.5	-0.5%	-0.3	9.6	-0.6
CCOc1ccc(-c2cc(C(F)(F)F)c(C#N)c(SCC(=O)Nc3ccccc3)n2)cc1
    1.4	·	0.2%	·	·	7.5
Cc1ccc2ncnc(Nc3ccccc3)c2c1
    2.9	2.7	0.7%	-6.5	18.0	1.3
CCOc1ccc(NC(=O)c2ccc3c(c2)N(C)CCS3)cc1
    19.9	3.2	4.8%	-2.8	5.4	-0.8

Next part:
Each structure is followed by: TRPML1 inh	CtBP-E1A inh	PINK1 modulator	D2 agonist	Six1-Eya2 blk	TRPML1 ag
CCOC(=O)/C(N=O)=C(\O)C1CCN(C(=O)OCC)CC1
    -3.4	6.4	-1.0%	-1.0	9.2	-0.8
Cc1ccc(NC(=O)CCCn2c(=O)c3cccn3c3ccccc32)cc1Cl
    -7.7	·	9.8%	·	·	2.3
Cc1nc(SCC(=O)c2ccc(Cl)cc2)c([N+](=O)[O-])[nH]1
    -4.9	3.0	·	-3.5	-2.5	1.4
CC(C)CC1Nc2ccc(C(=O)NCCCN3CCCCC3C)cc2NC1=O (centres undefined)
    7.3	0.9	-1.1%	-2.2	0.6	-0.7
Fc1ccc2nc(N3CCOCC3)sc2c1
    39.8	1.1	4.4%	2.3	4.5	0.0
O=c1ccc2cc(S(=O)(=O)N3CCN(c4ccccc4)CC3)ccc2[nH]1
    2.5	-14.3	2.9%	1.2	4.3	-0.2
CCCn1c(CCC(=O)O)nc2cc(S(N)(=O)=O)ccc21
    -1.8	·	1.0%	-4.6	-2.2	-0.4
CCOc1nc(-c2ccc(OC)cc2)ccc1-c1noc(-c2cc(OC)c(OC)c(OC)c2)n1
    -13.6	14.1	22.8%	2.1	17.3	0.1
CC1(C)Cc2cccc(OCC(=O)N3CCN(c4ccccc4)CC3)c2O1
    -9.1	11.5	-1.1%	-5.5	6.4	-0.6
CCOC(=O)CCCCCC(=O)Nc1ccc2c(c1)C(=O)N([C@H](C)CO)C[C@@H](C)[C@H](CN(C)Cc1ccc3c(c1)OCO3)O2
    -1.6	0.7	0.2%	-1.5	1.8	1.1
CCOC(=O)CCc1c(C)c(C#N)c2nc3ccccc3n2c1-n1cnc2ccccc21
    9.6	12.8	4.6%	-1.4	5.9	-0.4
COC(=O)c1nn(-c2ccc(OC)cc2)ccc1=O
    -5.3	·	0.4%	-5.2	3.4	-0.3
NS(=O)(=O)c1ccc(O)c(NC(=O)c2ccc([N+](=O)[O-])cc2)c1
    -8.5	11.1	-0.6%	-1.0	-0.9	-0.3
Cc1cc(C)nc(NN2C(=O)/C(=C/c3ccc(O)cc3)SC2=S)n1
    2.4	?	-1.2%[38.3 µM]	-7.4	-16.0	16.0
CN(C)CCNC(=O)CCCn1c(=O)c2cccn2c2ccccc21
    -14.8	·	-0.5%	·	·	3.2

Further compounds follow.
Each structure is followed by: TRPML1 inh	CtBP-E1A inh	PINK1 modulator	D2 agonist	Six1-Eya2 blk	TRPML1 ag
Cc1cccc(NC(=S)N(c2ccccc2)C(C)C)c1C
    -16.3	0.7	1.9%	1.9	3.4	0.3
Cc1ccc(N2C(=O)CS(=O)(=O)C23C(=O)Nc2ccccc23)cc1C (centres undefined)
    -15.5	·	-1.0%	·	·	0.6
O=[N+]([O-])c1cccnc1SCc1ccccc1
    25.2	-22.9	3.8%	-1.4	-19.8	1.4
CC1(C)CC(=O)C=C(NCCN2CCN(C(=S)Nc3ccccc3)CC2)C1
    26.7	4.4	0.3%	-4.7	6.4	0.6
C[C@H](O)[C@@]1(O)CC[C@H]2[C@@H]3CC[C@@H]4C[C@H](O)CC[C@]4(C)[C@H]3CC[C@@]21C
    ·	5.7	-0.5%	-5.2	0.3	·
CN1CCN(S(=O)(=O)c2cccc(C(=O)Nc3cc(C(F)(F)F)ccc3N3CCCCC3)c2)CC1
    6.9	-15.5	-3.9%	-2.9	1.2	?
COc1cc(NC(=O)Cn2ncc(Cl)c(Cl)c2=O)c(C)cc1[N+](=O)[O-]
    2.2	6.8	-0.9%	0.0	2.3	-0.1
Cc1ccc(Nc2nc3c(c(=O)[nH]2)CCCC3)cc1
    -3.9	7.4	-0.9%[38.3 µM]	-1.5	1.7	4.4
Cc1cc(N2C(=O)C(O)=C(C(=O)c3ccco3)C2c2cccc(Oc3ccccc3)c2)no1 (centres undefined)
    30.5	3.3	0.5%	-5.3	0.6	0.8
COc1ccccc1CNc1ncnc2onc(-c3ccc(Cl)cc3)c12
    29.6	·	4.0%	·	·	0.5
COc1ccc(S(=O)(=O)NC(=O)C2(C)CCN2C(=O)Cc2ccc(-c3ccccc3)cc2)cc1 (centres undefined)
    ·	0.3	-1.0%	-4.3	-1.4	-0.6
Cc1cc(C)cc(N2C(=O)CC(n3nc(C)cc3C)C2=O)c1 (centres undefined)
    12.0	4.5	-0.1%	-1.1	0.9	0.4
NNC(=O)C1CC1c1ccc(Cl)cc1 (centres undefined)
    13.3	-1.1	-1.5%	-0.9	7.6	-0.4
O=C(OCc1cn([C@@H]2CN(Cc3cccs3)[C@@H](c3ccc(Cl)cc3)C[C@H]2O)nn1)c1ccccc1
    -4.7	5.1	14.6%	-9.1	-3.5	0.2
CCOC(=O)[C@@H]1[C@H]2COc3ccccc3[C@@H]2N2C(=O)N(c3cccc(C)c3)C(=O)[C@]12C
    22.6	-1.3	0.7%	-1.8	1.0	-1.1

Other results follow.
Each structure is followed by: TRPML1 inh	CtBP-E1A inh	PINK1 modulator	D2 agonist	Six1-Eya2 blk	TRPML1 ag
COc1ccc(OCCn2cnc(Cl)c2Cl)cc1
    1.3	-22.4	2.8%	-4.4	20.4	0.4
Cc1ccccc1OCCn1cc(C(=O)O)c2ccccc21
    -11.3	-18.7	3.6%	-2.3	2.7	-0.1
CCC(=O)c1ccc(OCC(=O)NC2CCCC2)cc1
    13.3	-4.8	0.1%	-2.3	-2.7	0.9
COc1cc(NC(=O)c2cc(-c3cc(F)ccc3OC(C)C)n[nH]2)cc(OC)c1OC
    ·	-22.0	-0.2%	4.0	-2.0	-0.3
CCCCS(=O)Cc1ccccc1 (centres undefined)
    -5.2	3.6	-1.2%	-2.9	4.1	0.3
CCCCNC(=O)CSc1nc2n[nH]c(C)c2c(=N)n1-c1ccccc1CC
    -0.5	·	0.0%	·	·	3.7
CCN(C(=O)c1cccs1)c1nc(-c2ccc(OC)cc2)cs1
    -9.6	11.5	3.3%	5.4	-3.4	0.4
O=C(Nc1cccc(Cl)c1Cl)c1cc(S(=O)(=O)N2CCCc3ccccc32)ccc1F
    8.2	·	-1.2%	·	·	-0.3
CCNC(=S)Nc1cc(Cl)ccc1Oc1ccccc1
    -11.7	-2.3	0.7%	1.9	-1.0	1.0
COc1ccc(-c2cn3cc(C(=O)NN)ccc3n2)cc1
    -16.2	11.8	5.2%	-1.0	-23.5	-0.5
COc1cc(OC)cc(C(=O)NC(=S)Nc2cc3oc4ccccc4c3cc2OC)c1
    -17.5	1.9	-1.9%	-1.6	3.7	2.9
COCCN(CCOC)Cc1cc(=O)oc2cc(C)ccc12
    ·	6.1	2.3%	2.2	4.7	-0.7
Nc1nnnn1/N=C/c1ccc(N2CCCCC2)c([N+](=O)[O-])c1
    -13.6	-27.5	3.2%	-1.6	-11.0	3.2
CC(C)Cc1ccc(C(C)/C=C2/CCC(CN3CCCCC3)C2=O)cc1 (centres undefined)
    -11.9	-1.4	-2.0%	-1.6	-0.9	0.6
Cc1ccc(NC(=O)c2sccc2-n2cccc2)c(C)c1
    7.5	-9.3	2.3%	-3.3	-6.6	0.3
